Screens as filed in PubChem.
LASV entry inh – qHTS for Inhibitors of binding or entry into cells for Lassa Virus; Lassa virus pseudotype entry inhibition, cell reporter; control for the full effect not named in the record; Potency, µM (highest dose often 37.9 µM), inactives show at the highest dose activity change, negative = inhibition, hits mostly inhibitors; 1.2% of 300,000 active; AID 540256, 2011; active means well fitted inhibition curve with a large enough effect; inconclusive means small, poorly fitted or top-dose-only effect, or effect the other way; inactive means flat fitted curve, though single readings scatter; tested in HEK293 cells; further: on the % scale 0 is the no-effect control and ±100 the full control effect; nearly all actives have a fitted effect of over 50% in size; luciferase read-out
Cruzain inh noDet – qHTS Assay for Promiscuous and Specific Inhibitors of Cruzain (without detergent). Potency, µM, for inactives: max response, negative = inhibition, most hits filed as inhibitors. 2.3% of 200,000 active. Cruzipain (Trypanosoma cruzi), P25779. purified cruzain, Z-FR-AMC fluorescence, no detergent; active means well fitted curve in the direction sought with a large enough effect; inconclusive means small, poorly fitted or top-dose-only effect, or another doubt; inactive means no such curve, though single readings can be large; an effect the other way counts as inactive or inconclusive;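 further: plate controls were enzyme without inhibitor for no effect and buffer without enzyme for full effect; nearly all actives have a fitted effect of over 40% in size; top concentration of the series not given in the record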
Target sequence (P25779 123-467 limits assumed): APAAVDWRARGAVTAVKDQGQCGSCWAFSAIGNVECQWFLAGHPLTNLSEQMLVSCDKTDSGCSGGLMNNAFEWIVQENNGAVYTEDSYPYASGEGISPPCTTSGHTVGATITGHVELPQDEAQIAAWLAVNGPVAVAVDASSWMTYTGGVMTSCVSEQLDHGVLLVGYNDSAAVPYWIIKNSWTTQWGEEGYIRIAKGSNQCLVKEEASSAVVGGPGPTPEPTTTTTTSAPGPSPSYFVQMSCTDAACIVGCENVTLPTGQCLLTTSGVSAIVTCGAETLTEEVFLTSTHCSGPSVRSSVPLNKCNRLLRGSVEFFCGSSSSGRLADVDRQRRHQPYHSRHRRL
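Purified cruzain at 1.5 nM, pre-incubated 15 min with compound at room temperature in 100 mM sodium acetate pH 5.5, 5 mM DTT, 0.00005% Triton X-100. Reaction started with 2 uM Z-FR-AMC; AMC fluorescence increase over 60 s gives rate.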
RE007 growth inh – qHTS Assay for Inhibitors of the HIV-1 protein Vpr | S. pombe RE007 Vpr strain, BacTiter-Glo ATP luminescence, 24 h; control for the full effect not named in the record | Potency, µM (highest dose often 92.2 µM), for inactives: at the top dose activity change, negative = less growth | 0.21% of 360,000 active | AID 651644, 2012; active = well fitted falling curve with a large enough effect; inconclusive = small, poorly fitted or top-dose-only effect; inactive = no such curve, though single readings can be large or run the other way;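 further: on the % scale 0 is the no-effect control and ±100 the full control effect; nearly all actives have a fitted effect of over 50% in size; the assay follows cell death caused by Vpr and the record does not say whether a fall means rescue or toxicity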
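Fission yeast strain RE007, carrying one chromosomally integrated HIV-1 vpr copy, was seeded at OD 0.01 in PMG+AL medium with 23 nL pinned compound. After 24 h at 30 °C and 99% humidity, viability was read by BacTiter-Glo luminescence.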
MARV entry inh – qHTS for inhibitors of binding or entry into cells for Marburg Virus. Marburg virus pseudotyped entry inhibition, cell reporter; control for the full effect not named in the record; about a third of the inactives were read at about 46 µM. Potency, µM (doses to about 37.8 µM), inactives show at the top dose activity change, negative = inhibition, most hits filed as inhibitors. 1.8% of 300,000 active; active = well fitted inhibition curve with a large enough effect; inconclusive = small, poorly fitted or top-dose-only effect, or effect the other way; inactive = flat fitted curve, though single readings scatter; tested in HEK293 cells; about a fifth of its hits are not listed in these tables; further: on the % scale 0 is the no-effect control and ±100 the full control effect; luciferase read-out
NS1 function inh – qHTS Assay for Inhibitors of Influenza NS1 Protein Function | Potency, µM (series often up to 46.1 µM), inactives show top-dose activity, positive = more growth | 0.4% of 270,000 active | AID 2326, 2010 | S. cerevisiae slowed by influenza A NS1, growth recovery by OD600; further: actives are rising curves; nearly all actives have a fitted effect of over 50% in size
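Compounds were scored for reversing the slow growth caused by influenza A NS1 in S. cerevisiae, measured by optical density at 600 nm. Assay medium contained 2% galactose at pH 6.0; NS1-free yeast of the same strain were the positive control.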
SARS PLpro yeast – qHTS of Yeast-based Assay for SARS-CoV PLP. 0.19% of 330,000 active. S. cerevisiae expressing SARS-CoV PLpro, growth rescue; control for the full effect not named in the record. Potency, µM (doses to about 32.9 µM), for the others: top-dose activity, positive = growth rescue; further: 0% is about no effect; nearly all actives have a fitted effect of over 55% in size; growth read by luminescence after 48 h
StopGo reporter – High Throughput Screening for Foot and Mouth Disease Virus Antivirals | human cells with a luciferase reporter of 2A StopGo recoding; control for the full effect not named in the record | Potency, µM (highest dose often 57.9 µM), for inactives: at the highest dose signal change, negative = less light | 1.2% of 410,000 active; active = well fitted falling curve with a large enough effect; inconclusive = small, poorly fitted or top-dose-only effect; inactive = no such curve, though single readings can be large or run the other way; tested in HEK293T cells; further: on the % scale 0 is the no-effect control and ±100 the full control effect; nearly all actives have a fitted effect of over 45% in size; luciferase light after 4 h
Cruzain inh Det – qHTS Assay for Promiscuous and Specific Inhibitors of Cruzain (with detergent) | purified cruzain, Z-FR-AMC fluorescence, 0.01% Triton | Potency, µM, for the others: max response, negative = inhibition, hits mostly inhibitors | 0.43% of 200,000 active | AID 1478, 2009; active means well fitted curve in the direction sought with a large enough effect; inconclusive means small, poorly fitted or top-dose-only effect, or another doubt; inactive means no such curve, though single readings can be large; an effect the other way counts as inactive or inconclusive;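 further: plate controls were neutral wells for no effect and buffer without enzyme for full effect; nearly all actives have a fitted effect of over 40% in size; top concentration of the series not given in the record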
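Sodium acetate buffer (100 mM, pH 5.5) containing 5 mM DTT and 0.01% Triton X-100 hosted 1.5 nM cruzain and test compound for 15 min at room temperature. Cleavage of 2 uM Z-FR-AMC was then tracked by fluorescence.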
Active calls of the source: *; & = joins results of further samples; [ ] = remark or other dose. Unless noted, the call rests on the fitted dose curve; in most records, active means well fitted rising curve with a large enough effect; inconclusive means small, poorly fitted or top-dose-only effect; inactive means no such curve, though single readings can be large or run the other way. Potency means the concentration at half of the fitted maximal effect.

`O=S(=O)(NCC(c1ccco1)N1CCc2ccccc2C1)c1ccc(F)cc1` (centres undefined) gave LASV entry inh -26.5%, RE007 growth inh -15.1%, MARV entry inh -26.2%[46.1 µM], SARS PLpro yeast -2.1% and StopGo reporter -8.3%.
For O=S(=O)(c1ccccc1C(F)(F)F)N1CCN(CC(O)COc2ccccc2F)CC1 (centres undefined) the results were LASV entry inh -16.4%[46.1 µM], RE007 growth inh -12.4%, MARV entry inh 9.9%[46.1 µM], NS1 function inh -8.9%, SARS PLpro yeast -0.6% and StopGo reporter -10.5%.
For COc1ccc(NC(=O)c2nnn(CC(=O)Nc3cccc(C)c3C)c2N)c(OC)c1 the results were LASV entry inh -9.0%[46.1 µM], Cruzain inh noDet -6.2%, StopGo reporter 6.2% and Cruzain inh Det -1.2%.
For Cc1ccc(N(CC(=O)O)C2SC(=O)NC2=O)cc1 (centres undefined) the results were LASV entry inh 0.0%, Cruzain inh noDet 0.7%, RE007 growth inh -0.8%, MARV entry inh inconclusive, NS1 function inh 12.6%, SARS PLpro yeast 3.2%, StopGo reporter 4.1% and Cruzain inh Det 6.6%.
Screening O=C(NCc1cccc(Cl)c1)c1cccn1-c1nnc(N2CCCC2)s1 returned LASV entry inh -14.1%[46.1 µM], Cruzain inh noDet -2.2%, StopGo reporter 13.3% and Cruzain inh Det 1.1%.
Screening COCc1cc(Sc2ccc(OC)cc2)nc(-c2ccccc2)n1 returned LASV entry inh inconclusive, RE007 growth inh -10.3%, MARV entry inh -36.4%[46.1 µM], SARS PLpro yeast 1.7% and StopGo reporter -25.4%.
Cc1cccc(C(=O)N[C@H](C(=O)NCCc2ccc(S(N)(=O)=O)cc2)C(C)C)c1 was read as LASV entry inh 8.4%[46.1 µM], RE007 growth inh -8.1%, MARV entry inh inconclusive, NS1 function inh -5.5%, SARS PLpro yeast 5.3% and StopGo reporter 5.5%.
For CN(C)CCOC(=O)NCC12CC3CC(CC(C3)C1)C2 the results were LASV entry inh 7.9%[46.1 µM], RE007 growth inh 1.0%, MARV entry inh inconclusive, NS1 function inh 3.6%, SARS PLpro yeast -0.1% and StopGo reporter -8.7%.
Screening N#CCCn1cc(C=C(C#N)C#N)c(-c2ccc(-c3ccccc3)cc2)n1 returned LASV entry inh -3.0%, Cruzain inh noDet 17.8%, MARV entry inh inconclusive, NS1 function inh 20.7%, SARS PLpro yeast -24.1%, StopGo reporter -4.1% and Cruzain inh Det -13.3%.
`COC(=O)CCC(=O)NS(=O)(=O)c1ccc(N=NN2CCOCC2)cc1` gave RE007 growth inh -10.3%, NS1 function inh 4.4%, SARS PLpro yeast -0.1% and StopGo reporter 19.6%.
For CCOc1ncccc1C(=O)NNC(=O)c1ccc(NS(=O)(=O)c2cccs2)cc1 the results were LASV entry inh inconclusive, RE007 growth inh -4.2%, MARV entry inh -1.6%, SARS PLpro yeast -4.6% and StopGo reporter 39.4%[activator].
Screening Cc1nc2c(-c3ccccc3)c(C)nn2c(C)c1CCC(=O)NCc1ccc(F)cc1 returned LASV entry inh -1.4%[46.1 µM], Cruzain inh noDet -5.7%, MARV entry inh 13.5%[46.1 µM], StopGo reporter -28.8% and Cruzain inh Det 0.7%.
Screening CC1CCN(S(=O)(=O)c2ccc(C(=O)Nc3nnc(-c4ccncc4)o3)cc2)CC1 returned LASV entry inh inconclusive, RE007 growth inh 8.3%, MARV entry inh inconclusive, SARS PLpro yeast 1.2% and StopGo reporter -11.9%.
COc1ccc(Cc2nc3ccc(C(=O)N(C)Cc4nccs4)cc3o2)cc1OC was read as RE007 growth inh -5.4%, NS1 function inh 10.0%, SARS PLpro yeast -0.3% and StopGo reporter 0.0%.
`COc1ccccc1N1CCN(S(=O)(=O)c2c(C)[nH]c(C)c2C(=O)N2CCCCC2)CC1` gave LASV entry inh 10.1%[46.1 µM], RE007 growth inh 3.4%, MARV entry inh 9.5%[46.1 µM], NS1 function inh 4.6%, SARS PLpro yeast 0.8% and StopGo reporter 43.4%[activator].
For Cc1ccc(S(=O)(=O)N(CC(=O)Nc2ccc3c(c2)OCO3)c2cc(Cl)cc(Cl)c2)cc1 the results were LASV entry inh 2.4%[46.1 µM], Cruzain inh noDet -0.3%, StopGo reporter -6.8% and Cruzain inh Det 0.2%.
O=C(NNC(=O)c1ccccc1[N+](=O)[O-])c1cnccn1 was read as LASV entry inh -2.4%, Cruzain inh noDet -10.3%, RE007 growth inh 13.5%, MARV entry inh 10.9%, NS1 function inh 9.9%, SARS PLpro yeast 7.6%, StopGo reporter 10.7% and Cruzain inh Det 6.8%.
`COC(=O)c1ccccc1NC(=S)NC(NC(=O)c1ccco1)C(Cl)(Cl)Cl` (centres undefined) gave LASV entry inh 15.1%, Cruzain inh noDet 2.7%, RE007 growth inh -7.1%, MARV entry inh -13.6%, NS1 function inh 18.6%, SARS PLpro yeast -0.5%, StopGo reporter 28.3% and Cruzain inh Det -1.5%.
Clc1cccc(N/N=C/c2ccc(N3CCOCC3)cc2)c1 was read as LASV entry inh 11.9%, Cruzain inh noDet inconclusive, RE007 growth inh 172.0%, MARV entry inh 16.8%, NS1 function inh -61.0%, SARS PLpro yeast -13.6%, StopGo reporter 28.1% and Cruzain inh Det 1.6%.
`c1ccc(-c2ccc(CNC3CC3)cc2)cc1` gave LASV entry inh inconclusive, RE007 growth inh -13.0%, MARV entry inh 13.1%[46.1 µM], NS1 function inh 1.5%, SARS PLpro yeast 6.6% and StopGo reporter 1.3%.
Screening COc1ccc2c(c1OC)CCC2=O returned LASV entry inh 8.3%, Cruzain inh noDet 6.3%, RE007 growth inh -14.1%, MARV entry inh -6.8%, NS1 function inh 6.8%, SARS PLpro yeast -9.3%, StopGo reporter -21.2% and Cruzain inh Det -4.7%.
Screening CCN1CCC(NC(=O)Nc2cccc(C(F)(F)F)c2)CC1 returned LASV entry inh -14.8%, RE007 growth inh -4.2%, MARV entry inh inconclusive, NS1 function inh 1.2%, SARS PLpro yeast -0.8% and StopGo reporter -8.1%.
For COCCNC(=O)CCc1c(C)nc2c(c(C)nn2-c2ccc(C)c(C)c2)c1C the results were RE007 growth inh 2.7%, NS1 function inh 1.8%, SARS PLpro yeast -2.4% and StopGo reporter -21.8%.
`CCCn1c(N)c(C(=O)CSc2nc(C)cs2)c(=O)[nH]c1=O` gave LASV entry inh 8.5%, Cruzain inh noDet 7.0%, RE007 growth inh 11.9%, MARV entry inh 29.4%, NS1 function inh 2.3%, SARS PLpro yeast 2.9%, StopGo reporter 15.5% and Cruzain inh Det 6.7%.
CCN(CC)S(=O)(=O)c1ccc(C(=O)NCCSc2c(-c3ccccc3)[nH]c3ccccc23)cc1 was read as LASV entry inh -24.2%[46.1 µM], Cruzain inh noDet inconclusive, MARV entry inh inconclusive, StopGo reporter -16.4% and Cruzain inh Det 2.0%.
For Cc1cc(=O)[nH]c(SCC(=O)Nc2ccnc3ccccc23)n1 the results were LASV entry inh -3.1%, RE007 growth inh 5.3%, MARV entry inh 2.5%[46.1 µM], NS1 function inh 5.9%, SARS PLpro yeast 0.3% and StopGo reporter -23.3%.
For CN1C(C(=O)c2ccccc2)=C(NC(=O)c2ccccc2Br)c2ccccc2S1(=O)=O the results were LASV entry inh -1.5%[46.1 µM], Cruzain inh noDet -13.2%, MARV entry inh 15.5%[46.1 µM], StopGo reporter 17.8% and Cruzain inh Det -6.0%.
`Cc1ccc(NC(=O)C2CC(=O)N(Cc3ccccc3)C2)cc1S(=O)(=O)N1CCCCCC1` (centres undefined) gave LASV entry inh inconclusive, Cruzain inh noDet inconclusive, RE007 growth inh 6.2%, MARV entry inh inconclusive, NS1 function inh -5.3%, SARS PLpro yeast 19.2%, StopGo reporter inconclusive and Cruzain inh Det -6.6%.
Screening CCCCOc1ccc(C(=O)N2CC(=O)Nc3ccc(Br)cc3C2c2ccc(F)cc2)cc1 (centres undefined) returned LASV entry inh inconclusive, Cruzain inh noDet 25.1µM*, MARV entry inh inconclusive, StopGo reporter -22.1% and Cruzain inh Det -10.7%.
CCOc1ccc(Nc2ccc3nonc3c2[N+](=O)[O-])cc1 was read as LASV entry inh 3.6%, RE007 growth inh -4.3%, MARV entry inh inconclusive, NS1 function inh -1.5%, SARS PLpro yeast 0.2% and StopGo reporter -23.6%.
`Cc1ccc(S(=O)(=O)NCC(NCc2ccc(F)cc2)c2ccccc2)cc1` (centres undefined) gave LASV entry inh -18.5%, RE007 growth inh -15.3%, MARV entry inh inconclusive, SARS PLpro yeast 0.6% and StopGo reporter -10.1%.
Screening Cn1c2ccccc2c(=O)c2c(O)cccc21 returned LASV entry inh 17.2%[46.1 µM], RE007 growth inh -6.1%, MARV entry inh 18.2%&18.2%[46.1 µM], SARS PLpro yeast -1.5% and StopGo reporter 2.4%.
For OCC1(Cc2ccccc2)CCCN(Cc2ccc(-c3ccco3)cc2)C1 (centres undefined) the results were LASV entry inh 11.5%[46.1 µM], RE007 growth inh -18.1%, MARV entry inh inconclusive, NS1 function inh -1.0%, SARS PLpro yeast 1.1% and StopGo reporter -21.1%.
Screening Cc1ccc(C)c(CN2C(=O)C(O)(c3c(C)[nH]c4ccccc34)c3ccccc32)c1 (centres undefined) returned LASV entry inh -14.6%[46.1 µM], Cruzain inh noDet 27.4%, MARV entry inh -28.8%[46.1 µM], StopGo reporter -13.5% and Cruzain inh Det -15.2%.
For OCCN1CCN(CC(O)COc2ccc(Cl)cc2)CC1 (centres undefined) the results were LASV entry inh 4.7%, Cruzain inh noDet 4.2%, RE007 growth inh -1.5%, MARV entry inh 19.3%, NS1 function inh 1.3%, SARS PLpro yeast -0.2%, StopGo reporter -4.5% and Cruzain inh Det 2.8%.
Screening Cc1ccc(NC(=O)Cn2cc([N+](=O)[O-])nc2C)cc1C returned RE007 growth inh -11.7%, NS1 function inh 6.9%, SARS PLpro yeast 0.6% and StopGo reporter -3.7%.
